Screening results as filed in PubChem BioAssay.
PrP 5UTR inh: suppresses PrP 5' UTR mRNA reporter expression; inhibition, % (concentration not given with the values); AID 488862; cell-based PrP 5' UTR mRNA reporter, plate reader; 340,000 compounds, 0.35% hits;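 active means every replicate at 50% or more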;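 further: 0 = median of the neutral control wells; tested in H4 reporter cells; numbers are from one replicate; inactives centre near -14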
BJeLR lethal: kills HRASV12-expressing BJeLR cells | BJeLR (HRASV12) viability, CellTiter-Glo ATP luminescence, 48 h; reference of the scale not given here | inhibition, % (concentration not given with the values) | 300,000 compounds, 0.17% hits;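 active means replicate mean above 50%; inconclusive means above 50% but judged a plate artefact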;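 further: 50 nL library stock added to about 25 µL; numbers are from one replicate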
Sa RN4220 lethal: S. aureus RN4220 growth inhibition; OD600, 16 h; inhibition, % (test concentration not listed); 330,000 compounds, 0.33% hits; AID 1259311;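 active means z-score of -3 or lower and OD600 up to 0.18 on both plates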;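 further: plate controls were untreated cells for no effect and reference antibiotic for full effect; stock transfer was 100 nL into about 80 µL; one replicate is shown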
Bead autofluor: compound fluorescence in toxin protease inhibitor counterscreen; AID 624483; 360,000 compounds, 3.1% hits; compound autofluorescence counterscreen, microsphere flow cytometry; active compounds read high; fluorescence intensity (test concentration not listed);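 active means at least 3 SD above the mean of all compounds, about 16000 in these data; inconclusive means too few beads counted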;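 further: 100 nL of 1 mM stock went into each well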
Mtb hypoxia inh: inhibitors of hypoxia-regulated fluorescent reporter in Mycobacterium tuberculosis. M. tuberculosis hypoxia-regulated fluorescent reporter, fluorescence. 300,000 compounds, 0.1% hits. fluorescence inhibition, % (test concentration not listed);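 active means 35 to 45% if threefold the growth effect, above 45% if 1.5-fold the growth effect; inactive means the rest, general growth blockers included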;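 further: wells of about 50 µL received 100 nL stock; 0% = vehicle wells and 100% = reference inhibitor wells; whole bacteria with a GFP reporter of the hypoxia response; strong numbers were not always called active; many hits fall short of the cut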
ugtP null kill: compounds lethal to S. aureus RN4220 ugtP deletion mutant; OD600 growth, 16 h; some inactives read as strong as hits; growth inhibition, % (concentration not given with the values); 330,000 compounds, 0.54% hits; AID 1259309;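 active means z-score under -3 and OD600 up to 0.15 on both plates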;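 further: plate controls were untreated wells for no effect and antibiotic for full effect; wells of about 80 µL received 100 nL stock; the first replicate is given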
Mtb hypoxia inh growth: second read-out of Mtb hypoxia inh, no call of its own (marks repeat the call); growth inhibition, %; measured here: M. tuberculosis growth (absorbance);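 0% = vehicle and 100% = reference antibiotic; read after six days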
An asterisk follows results filed as active; ? = inconclusive; · = not tested or not shown.

SMILES | PrP 5UTR inh | BJeLR lethal | Sa RN4220 lethal | Bead autofluor | Mtb hypoxia inh | Mtb hypoxia inh growth | ugtP null kill
Cc1cc(C)c(-c2cc(NC(=O)COC(=O)c3ccc(CO)cc3)n(-c3ccccc3)n2)cc1C | -8 | -2 | -1.2 | 2451 | 15 | 3 | 7
Cn1c(=O)c2c(ncn2CC(O)CNc2ccc(Br)cc2)n(C)c1=O (stereo not drawn) | 4 | 8 | 2.4 | 4606 | 8 | 14 | -7
CC(=O)c1cnc(-c2ccccc2Cl)s1 | -22 | 5 | 13 | 4316 | 17 | 9 | 4
CCCS(=O)(=O)N1CCCC(C(=O)c2cccc(Cl)c2)C1 (stereo not drawn) | -13 | 6 | · | 3221 | · | · | ·
CC(=NNc1nc(C)cc(C)n1)c1ccc(N2CCOCC2)cc1 | · | · | 7.2 | · | -1 | 4 | 10
COc1ccc(Cl)cc1NC(=O)CN(C)C(=O)Cn1c(=O)oc2ccccc21 | -23 | 19 | 6.0 | ? | 2 | -3 | 16
c1cncc(CSc2nnc3ccc(-c4cccs4)nn23)c1 | -3 | -5 | 2.1 | 5327 | 9 | 6 | 1
CCC1(CC)Cc2ccccc2-c2nc(CCl)[nH]c(=O)c21 | -20 | 6 | 1.5 | 4240 | 14 | 6 | 0
CCOC(=O)Cc1c(C)nc2c(-c3cccc(Br)c3)cnn2c1C | -4 | -1 | 4.8 | 2478 | 9 | 7 | 4
Cc1cccc(C)c1-n1c(C)nn(Cc2ccc([N+](=O)[O-])cc2)c1=O | -7 | -3 | 7.4 | 4159 | 10 | 7 | 6
S=c1nc(-c2ccc(Br)cc2)[nH]c2ccccc12 | -13 | 14 | 2.9 | 4886 | 14 | 0 | 1
CCn1cc(C(=O)N2CCN(C(=O)c3ccco3)CC2)c2cc(OC)c(OC)cc2c1=O | -24 | -6 | 0.5 | 4464 | · | · | 3
O=C(O)c1ccccc1Cc1ccc2c(c1)CCCC2 | -12 | · | 9.1 | 3637 | 17 | 9 | 0
CCOC(=O)C1C(=O)NC(c2ccccc2)=NC1c1ccc(OC)cc1 (stereo not drawn) | -2 | -4 | -0.4 | 2210 | -11 | -7 | 5
CC(C)(C)NC(=O)C=Cc1cccc(C(F)(F)F)c1 | · | · | 7.8 | · | 13 | 8 | -3
O=C(CNC(=O)c1ccncc1)N/N=C/c1ccccn1 | -4 | 3 | · | 1957 | · | · | ·
COc1cc(/C=C/C(=O)O)ccc1OCc1cnc(Cl)s1 | -24 | 3 | · | 3442 | · | · | ·
COC(=O)c1cccc(C(=O)N2CCC(CCC(=O)NCc3ccc(F)cc3)CC2)c1 | -13 | 3 | 0.0 | 5394 | 14 | 4 | 3
O=C(CSc1nnc2ccc(-c3ccncc3)nn12)N1CCCCC1 | -20 | 10 | 1.8 | 4324 | 0 | 13 | 7
COc1ccc(C=NNC(=O)c2ccc3nc[nH]c3c2)cc1OC | · | · | 0.4 | · | 22 | 16 | 1
CCOC(=O)c1sc(NC(=O)CSc2nnc(Cc3ccccc3)o2)c(C(=O)OCC)c1C | -30 | -4 | -2.1 | 23789* | 3 | 6 | 19
Cn1c2ccccc2c2nnc(SCC(=O)Nc3cccc(C(=O)O)c3)nc21 | -7 | 0 | 1.7 | 3624 | -14 | 7 | -8
CCCCNC(=O)n1c(=O)oc2ccc(Cl)cc21 | -25 | 8 | 3.2 | 2989 | · | · | 1
Cc1ccc(S(=O)(=O)NCC(=O)N(CC(=O)NCc2ccccc2)CC2CCCO2)cc1 (stereo not drawn) | -7 | 1 | 8.0 | 3677 | · | · | 6

Fetched one by one from the list above:
SMILES | PrP 5UTR inh | BJeLR lethal | Sa RN4220 lethal | Bead autofluor | Mtb hypoxia inh | Mtb hypoxia inh growth | ugtP null kill
O=C(O)c1ccccc1Cc1ccc2c(c1)CCCC2 | -12 | · | 9.1 | 3637 | 17 | 9 | 0
CC(C)(C)NC(=O)C=Cc1cccc(C(F)(F)F)c1 | · | · | 7.8 | · | 13 | 8 | -3
CCCCNC(=O)n1c(=O)oc2ccc(Cl)cc21 | -25 | 8 | 3.2 | 2989 | · | · | 1
CCOC(=O)c1sc(NC(=O)CSc2nnc(Cc3ccccc3)o2)c(C(=O)OCC)c1C | -30 | -4 | -2.1 | 23789* | 3 | 6 | 19
COc1cc(/C=C/C(=O)O)ccc1OCc1cnc(Cl)s1 | -24 | 3 | · | 3442 | · | · | ·

Carrying on:
SMILES | PrP 5UTR inh | BJeLR lethal | Sa RN4220 lethal | Bead autofluor | Mtb hypoxia inh | Mtb hypoxia inh growth | ugtP null kill
COCc1nnc(NC(=O)CCc2ccc(OC)cc2)s1 | 0 | 2 | -2.6 | 3609 | 0 | 9 | 6
COCC(C)NC(=O)CSc1nc2nn(-c3ccccc3)c(=O)c-2c2n1CCCCC2 (stereo not drawn) | -14 | 0 | 5.8 | 3151 | 17 | 6 | 5
COc1ccc(-c2nnn(CC(=O)N(CCCN3CCOCC3)C(C(=O)NC3CCCC3)c3ccco3)n2)cc1 (stereo not drawn) | -7 | 1 | 0.0 | 4644 | -6 | 2 | 2
O=C(NCc1ccc2c(c1)OCO2)c1cccs1 | -6 | -3 | -1.2 | 12007 | 3 | 9 | -4
CC(NC(=O)CSc1cccc(C(F)(F)F)c1)c1ccccc1 (stereo not drawn) | -21 | -6 | -0.5 | 2153 | 3 | 2 | -2
CCC[C@H](N[C@@H](CCC)[C@H](O)c1ccccc1)[C@H](O)c1ccccc1 | -25 | -6 | 2.2 | 5868 | 10 | -8 | 1
Cc1cccc(N(Cc2ccccc2)C(=O)c2ccc(CS(C)(=O)=O)cc2)c1 | -11 | -11 | 3.1 | 5478 | 11 | 2 | 4
CCOc1ccccc1NC(=O)[C@@H](NC(=O)c1ccccc1F)C(C)C | -2 | 0 | 2.8 | 4017 | -7 | 4 | 0
CCc1ccccc1N(CC)C(=O)c1cn(CC)c(=O)c2cc(OC)c(OC)cc12 | -6 | -1 | 1.9 | 3125 | · | · | 6
COc1cc2c(cc1OC)CN(C(=O)CCC(=O)c1ccc(F)cc1)CC2 | -16 | · | 15 | 6636 | 7 | -1 | 12
CCn1c(O)c2ccc(C(=O)N=NC(=O)c3ccccc3)cc2c1O | -24 | 2 | 4.0 | 4483 | -5 | -6 | 4
CCCN1CCC(=O)N(C(COc2ccccc2)Cc2ccccc2)CC1 (stereo not drawn) | · | · | -1.9 | · | 0 | -8 | -7
C[C@]12C=CC(=O)C=C1CC[C@@H]1C2[C@@H](O)C[C@@]2(C)C1CC[C@]2(O)C(=O)COC(=O)CCC(=O)O (stereo partly drawn) | -15 | -9 | 0.9 | 3965 | 10 | -1 | -4
Cc1cc(N2C(=O)C(O)=C(C(=O)c3cccs3)C2c2ccc(F)cc2)no1 (stereo not drawn) | -10 | 4 | 27 | 5894 | -19 | -10 | -2
C=CCn1c(SCC(=O)NC2CCS(=O)(=O)C2)nnc1-c1ccc(Cl)cc1 (stereo not drawn) | 1 | -4 | 1.7 | 6515 | 9 | -1 | -2
O=C(N/N=C/c1ccoc1)c1ccccc1O | -5 | -1 | · | 5507 | · | · | ·
CC(C)(C)NC(=O)C[C@H]1C[C@H](C(=O)N2CCOCC2)[C@@]2(CCC3CCCC3)c3[nH]c4ccc(Cl)cc4c3CCN2C1=O | -3 | · | 1.1 | 2847 | -13 | 2 | -12
CC(C)(C)OC(=O)N1CCCN(C(=O)Nc2cccc(Cl)c2)CC1 | · | -16 | 2.1 | 6307 | 3 | 2 | 5
CCc1nnc(NS(=O)(=O)c2ccc(N=CC3=C(O)CC(C)(C)CC3=O)cc2)s1 | -12 | 6 | 6.2 | 2562 | · | · | 21
Cc1ccc(C(=O)Nc2ccnc(-c3ccncc3)n2)cc1 | -6 | 0 | -0.3 | 2467 | -7 | 8 | 8
COc1ccc(N(CC(C)C)S(=O)(=O)c2nnc(NC(=O)c3ccco3)s2)cc1 | -15 | 3 | 4.3 | 4720 | -1 | 9 | -3
C=C(C)c1nc2cc(OC)c(OC)cc2c(=O)o1 | -4 | -6 | 7.9 | 2866 | 6 | 11 | 1
CC(=O)NC(CCS(C)(=O)=O)C(=O)Nc1cccc2ccccc12 (stereo not drawn) | -12 | 13 | 4.3 | 7438 | -5 | -2 | 0
COc1ccc(C=CC(=O)c2c(OC)cc(OC)c(OC)c2O)cc1 | -21 | · | 6.3 | 4124 | 1 | 6 | 2
CCCC1(c2ccccc2)NC(=O)N(CC(=O)Nc2cc(C)ccc2OC)C1=O (stereo not drawn) | -13 | 8 | -2.5 | 5454 | 11 | 7 | 1
Cc1cccc(C(=O)NC2CCN(CC(=O)N3CCOCC3)CC2)c1 | -15 | -22 | 2.0 | 4288 | 6 | 3 | -1
CN1C(=O)/C(=C/C=C2\SCCN2C)SC1=S | · | -4 | -1.3 | · | 14 | 1 | 1
C/C(CC(=O)Nc1ccc(N(C)C)cc1)=N\NC(=O)c1ccc([N+](=O)[O-])cc1 | -25 | -2 | · | 4363 | · | · | ·
Cc1ccc2c(c1)C1CC(C)(O2)N(c2cccc(C(=O)N3CCN(c4ccccn4)CC3)c2)C(=O)N1 (stereo not drawn) | 0 | -3 | -0.8 | 5611 | -4 | 16 | -2
CCOC(=O)C(NC(=O)c1ccccc1)(OCc1ccc(F)cc1)C(F)(F)F (stereo not drawn) | -6 | 2 | 9.7 | 2204 | 8 | 6 | 0
COC(=O)C1=C(C)NC(C)=C(C(=O)OCCN(C)Cc2ccccc2)C1c1cccc([N+](=O)[O-])c1 (stereo not drawn) | -9 | -14 | -2.2 | 6106 | -3 | 2 | -10
CN1CCC2(CC1)NC(=O)C1=C(CN(C)CC1)N2 | -9 | 1 | 1.4 | 4149 | · | · | 1
O=C(CC1CCCCC1)Nc1ncn[nH]1 | -17 | -1 | 2.0 | 2510 | 7 | 3 | -8
Cc1ccc(-c2nnc(-c3ccccc3Br)o2)cc1 | -71 | -13 | 5.5 | 4013 | 22 | 16 | 2
Cc1cccc(N2CC(C(=O)Nc3nccs3)CC2=O)c1C (stereo not drawn) | -17 | 5 | 1.2 | 5452 | 5 | 12 | 14
Cc1ccc(Sc2oc(C=Nn3cnnc3)cc2Br)cc1 | · | · | 0.4 | · | 12 | 5 | 6
CCCCCOc1ccccc1C(=O)NCCCC(=O)O | -18 | -5 | 15 | 3861 | · | · | 9
O=c1nc2ccccc2c2n1CC(CN1CCN(c3cccc(Cl)c3)CC1)N2 (stereo not drawn) | 1 | 9 | -2.5 | 17652* | -10 | -8 | 0
CC(C)Nc1nc(NC(C)C)nc(Oc2ccc(/C=N/O)cc2)n1 | -23 | -10 | · | 3391 | · | · | ·
COc1ccc(NC(=O)C2C3C=CC(C3)C2C(=O)NCc2ccco2)c(OC)c1 (stereo not drawn) | 11 | -3 | 1.6 | 2196 | · | · | -1
O=C(Nc1nn(Cc2ccc(Cl)cc2)cc1Br)c1ccc(COc2ccccc2Cl)o1 | -10 | 4 | -15 | 2414 | · | · | -1
Cc1ccc(Oc2ncccc2NC(=O)CC2(CC(=O)O)CCCC2)c2c1CCC2 | -10 | 5 | 12 | 3669 | 0 | -6 | 1
Cc1ccc(NC(=O)N(C2CCCCC2)C(C)c2cccnc2)cc1C (stereo not drawn) | -4 | -12 | -0.4 | 5584 | -8 | -6 | 0
CCCc1ccc(OCC(=O)NNC(=S)NC(=O)c2ccco2)cc1 | -44 | 4 | 102* | 2040 | · | · | 96*
COc1ccc(/C=N/N=C(\N)c2nonc2N)cc1 | -62 | 9 | · | 4038 | · | · | ·
CCN1C(C)=C(C)S/C1=C1\SC(=S)N(NC(C)=O)C1=O | -15 | 0 | 2.2 | 3312 | 8 | 2 | 9
COc1ccc(/C=N/Nc2nnc(Cc3ccc(OC)c(OC)c3)c(=O)[nH]2)cc1 | -15 | -15 | · | 2165 | · | · | ·
CCCCC(=O)N(c1ccc(C)c(C)c1)C1C=CS(=O)(=O)C1 (stereo not drawn) | -18 | 0 | 0.1 | 5853 | 9 | 4 | 9
CC(C)(O)C1CC[C@@](C)(C2CC[C@]3(C)C2C(O)CC2[C@@]4(C)CCC(O)C(C)(C)C4C(OC4OC(CO)C(O)C(O)C4OC4OCC(O)C(O)C4O)C[C@]23C)O1 (stereo partly drawn) | · | · | 9.1 | · | -2 | -5 | 2
CC(C)CC(NC(=O)/C(=C\c1ccco1)NC(=O)c1ccco1)C(=O)O (stereo not drawn) | -21 | 10 | 2.4 | 3441 | -4 | -4 | 9

Rows are unselected; any-hit rate near 4%.
